PKD1 inh: inhibitors of human PKD1 kinase; actives 0.056% (n = 200,000); PKD1 kinase fluorescence polarization assay; inhibition, %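 (about 10 µM by stock and volumes)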; Q15139;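 active means inhibition of 50% or more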;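 further: controls were vehicle for no effect and a reference inhibitor for full effect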
GALR2 ag: agonists of human galanin receptor 2 (GALR2); GALR2-expressing cells, agonist activation read-out; actives 0.48% (n = 140,000); activation, %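 (tested at 5 µM)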; O43603; AID 803;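 active means above mean plus 3 SD of all compounds, about 5% in these data, not always enough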;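 further: 0% = vehicle buffer wells and 100% = reference agonist at full effect; tested in CHO reporter cells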
Target sequence (O43603 whole entry, looked up): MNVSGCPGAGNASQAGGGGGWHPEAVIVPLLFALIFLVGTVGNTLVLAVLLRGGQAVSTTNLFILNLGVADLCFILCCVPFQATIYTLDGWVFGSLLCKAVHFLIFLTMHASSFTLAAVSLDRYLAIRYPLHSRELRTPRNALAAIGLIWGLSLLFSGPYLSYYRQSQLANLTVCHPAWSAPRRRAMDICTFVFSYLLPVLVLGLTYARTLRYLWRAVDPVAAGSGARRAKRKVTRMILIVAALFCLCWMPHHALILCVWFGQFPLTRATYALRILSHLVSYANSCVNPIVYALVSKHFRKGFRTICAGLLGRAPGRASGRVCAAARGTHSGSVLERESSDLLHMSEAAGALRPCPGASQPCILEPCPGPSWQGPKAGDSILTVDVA
INS promoter inh: TRM-6 insulin promoter activity inhibition; TRM-6 cells (human fetal islet line), insulin promoter-eGFP reporter, imaging; reporter expression induced with tamoxifen; inhibition, % at 2 µM; actives 0.9% (n = 130,000); AID 1273;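 active means inhibition above the mean plus 3 SD, with well images judged a real hit on visual review, cut at about 60% in these data, passing the limit was not always enough; inconclusive means inhibition over the cutoff but images rejected on review; inactive means inhibition not above the cutoff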
RGS16-Gao HTS: RGS16-Galphao interaction regulator (human) | O15492+P09471 | bead-based flow cytometry RGS16-Galphao binding, fluorescence; actives lie on both sides | binding response (% of control), % at 10 µM | actives 0.38% (n = 220,000) | AID 1441;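 active means below 25% or above 175%, edge rows of some plates excepted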;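 further: Galphao activated by GDP with aluminum fluoride before binding; 100% = wells without compound and 0% = beads without RGS; some results beyond the cut were filed as inactive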
Target sequence (O15492 whole entry, looked up): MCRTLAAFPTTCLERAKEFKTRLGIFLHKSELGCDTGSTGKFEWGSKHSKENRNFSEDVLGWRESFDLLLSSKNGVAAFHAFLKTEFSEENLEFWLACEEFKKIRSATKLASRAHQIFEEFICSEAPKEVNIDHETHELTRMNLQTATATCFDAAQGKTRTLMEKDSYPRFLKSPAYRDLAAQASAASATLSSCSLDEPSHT
Target sequence (P09471 whole entry, looked up): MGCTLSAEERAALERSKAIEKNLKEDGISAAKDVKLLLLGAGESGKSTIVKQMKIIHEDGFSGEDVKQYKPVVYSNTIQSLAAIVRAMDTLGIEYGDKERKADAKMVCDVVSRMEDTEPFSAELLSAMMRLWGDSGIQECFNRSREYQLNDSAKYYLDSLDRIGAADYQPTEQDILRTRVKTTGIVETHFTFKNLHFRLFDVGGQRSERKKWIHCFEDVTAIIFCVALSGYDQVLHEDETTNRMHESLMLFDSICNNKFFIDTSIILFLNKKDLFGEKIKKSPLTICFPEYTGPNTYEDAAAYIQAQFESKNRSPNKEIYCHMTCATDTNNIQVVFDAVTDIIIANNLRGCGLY
HSV augment: increases HSV replication in cells | HSV replication augmentation in cells, fold increase | maximum fold increase | actives 0.005% (n = 220,000) | AID 1956;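 active means peak rise of 1.5-fold or more in the series; inconclusive means self-fluorescent or not available for retest; tested in PC3 cells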;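 further: first round at 10 µM; read as green reporter fluorescence; hits show the peak of a series up to 25 µM; 1 = signal of infected wells without compound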
INS promoter inh cell count: also measured in INS promoter inh; calls as there; normalized cell count, %; measured here: cell count, toxicity; reference of the scale not given here;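 cells exposed to compound for 48 h; stained nuclei by imaging scaled within each plate; lower means fewer cells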
HSV augment primary fold: further read-out of HSV augment, marked with its call; fold increase; compound at 10 µM; measured here: primary screen fold increase 10 uM; tested in PC3 cells;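 GFP signal in the first replicate; 1 = infected wells without compound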
Numbers without * were called inactive; i = inactive; ? = inconclusive; · = not tested or not shown. Some of the compounds tested; rates above refer to the full screens.

SMILES	PKD1 inh	GALR2 ag	INS promoter inh	INS promoter inh cell count	RGS16-Gao HTS	HSV augment	HSV augment primary fold
O=C(NC(=C(Cl)Cl)P(=O)(c1ccccc1)c1ccccc1)c1ccccc1	-5	-1.0	-19	75	106	i	0.96
COc1ccc(CN2CCN(c3ccccc3)CC2)c(C)c1C	-5	0.3	·	·	102	i	0.96
Cc1c(C=O)c2ccccc2n1Cc1ccc([N+](=O)[O-])cc1	1	0.9	-9	58	103	i	1
CCC(=NCCCn1ccnc1)c1c(O)n(-c2ccccc2)c(=O)[nH]c1=O	·	·	·	·	107	i	0.92
CC1CN=C(NCCc2ccccc2)S1 (centres undefined)	16	·	15	91	102	i	1
CN=C(SCc1ccccc1)c1c(O)n(C)c(=O)n(C)c1=O	-8	-1.2	·	·	·	i	0.69
Cc1c(N=Cc2c(O)n(C)c(=O)[nH]c2=O)c(=O)n(-c2ccccc2)n1C	·	·	·	·	91	i	1.1
Cc1cc(/C=C2\C(=O)NC(=S)N(C)C2=O)c(C)n1C1CCCCC1	3	-1.2	·	·	106	i	1.1
CCc1nnc(NS(=O)(=O)c2ccc(N=Cc3c(O)n(-c4ccc(Cl)cc4)c(=O)[nH]c3=O)cc2)s1	-5	·	·	·	92	·	·
O=C1CC(=O)N(c2ccc3c(c2)OCO3)C(=O)N1	-10	-1.5	·	·	105	i	1
O=P(O)(O)COc1ccccc1O	-24	-0.7	·	·	134	i	0.97
COc1ccc(C(=O)C2CCCN(Cc3ccc(C)s3)C2)c(OC)c1 (centres undefined)	-10	·	·	·	108	i	0.88
Nc1nnc(CCN2CCCCC2)s1	8	-1.0	·	·	96	i	0.94
CCOC(=O)c1c(/N=C/c2c(O)n(-c3cccc(C)c3)c(=O)[nH]c2=O)sc2c1CCCC2	1	-1.6	·	·	98	i	1.1
O=[N+]([O-])c1ccc(-c2ccccc2)c([As](=O)(O)O)c1	·	·	·	·	101	i	1

2 records drawn at random from the list so far, as already listed:
SMILES	PKD1 inh	GALR2 ag	INS promoter inh	INS promoter inh cell count	RGS16-Gao HTS	HSV augment	HSV augment primary fold
O=C(NC(=C(Cl)Cl)P(=O)(c1ccccc1)c1ccccc1)c1ccccc1	-5	-1.0	-19	75	106	i	0.96
CCc1nnc(NS(=O)(=O)c2ccc(N=Cc3c(O)n(-c4ccc(Cl)cc4)c(=O)[nH]c3=O)cc2)s1	-5	·	·	·	92	·	·

Going on with the list.
SMILES	PKD1 inh	GALR2 ag	INS promoter inh	INS promoter inh cell count	RGS16-Gao HTS	HSV augment	HSV augment primary fold
N=c1c2c(n(Cc3ccc(Cl)cc3Cl)c3c1CCC3)CCCC2	0	-1.5	·	·	115	i	0.95
O=C1NC(=O)C(C/C=C/c2ccccc2)C(=O)N1	-13	-0.7	·	·	102	i	1
CCC(C)(C)n1nnnc1C(c1cccs1)N1CC=C(c2ccc(F)cc2)CC1 (centres undefined)	-2	-1.4	-7	181	102	i	1
ClCCNc1nc2ccc(Cl)cc2[nH]1	-10	-4.9	22	86	100	i	0.86
CCC(=O)N1N=C(c2c(O)n(CCc3ccccc3)c(=O)[nH]c2=O)CC1c1ccc(OC)c(OC)c1 (centres undefined)	·	·	·	·	100	i	0.87
CC(C)Cc1nnc(NC(=O)CCC(=O)N2CCN(CCOC(c3ccccc3)c3ccccc3)CC2)s1	-4	-0.3	·	·	324	i	1
C=CCN1C(=O)NC(=O)/C(=C/c2ccc(N(C)C)c(Br)c2)C1=O	5	·	·	·	104	i	1.1
Cc1cc(C)cc(N2C(=O)NC(=O)/C(=C\C=C\c3ccco3)C2=O)c1	-25	0.3	-17	99	133	·	·
Cc1ccc(N2C(=O)NC(=O)/C(=C\c3cc(C)n(-c4sc5c(c4C#N)CCCC5)c3C)C2=O)cc1	12	0.4	·	·	98	?	·
CCn1c(O)c(C(=O)CC2NCCc3ccccc32)c(=O)n(CC)c1=S (centres undefined)	-3	-2.9	·	·	98	·	·
O=[N+]([O-])c1ccc(Nc2ccccc2)cc1	-6	-0.4	51	106	96	i	0.97
Clc1ccc(-c2nc3ccc(Cl)cn3c2CN2CCOCC2)cc1	-2	0.3	0	135	85	i	0.84
CCN1C(=O)NC(=O)/C(=C\c2ccc(N3CCOCC3)cc2OC)C1=O	7	-0.4	·	·	106	·	·
CC[N+](CC)(CC)CCCOC(=O)C(O)(c1ccccc1)C1CCCCC1 (centres undefined)	4	-2.5	-7	130	101	i	0.98
O=c1[nH]c(=O)n(-c2cccc(Cl)c2)c(O)c1/C=N/c1ccccn1	1	-0.9	3	92	88	i	1.2
Cc1ccc2c(c1)C1CN(C)CCC1N2C(=O)Cc1cccs1 (centres undefined)	-13	-0.3	-33	84	118	i	0.9
CCN1CCN(CC(=O)c2c(C)n(Cc3ccccc3)c3ccc(OC)cc23)CC1	-9	-3.3	14	92	102	i	1
COC(=O)C1C(OC(=O)c2ccccc2)CC2CCC1N2C (centres undefined)	9	·	·	·	99	i	1
O=C1C(=O)c2cccc3cccc1c23	13	-0.1	23	99	112	i	1
Fc1ccc(C(OCCN2CCCC2)c2ccc(Br)cc2)cc1 (centres undefined)	-2	0.3	3	92	102	i	0.84
Cc1ncc([N+](=O)[O-])n1CCOC(N)=O	·	·	·	·	96	i	0.95
COc1cccc(-c2cc(C(F)(F)F)n3nc(C(=O)N4CCC5(CC4)OCCO5)cc3n2)c1	-13	0.1	-18	131	105	i	0.77
CCC(=NCC1CCCO1)c1c(O)n(-c2ccccc2C)c(=O)[nH]c1=O (centres undefined)	·	·	·	·	127	i	0.96
CC(=O)Nc1ccc(OCCF)cc1	-5	·	22	84	100	i	1
COc1cc(C(=O)N/N=C/C23CC[C@@H](O)CC2(O)CC[C@@H]2[C@@H]3CCC3(C)C(C4=CC(=O)OC4)CCC23O)ccc1O (some centres undefined)	·	·	·	·	101	i	0.72
Cn1c(O)c(/C=C/C=Nc2ccccc2)c(=O)n(C)c1=S	-10	3.4	·	·	124	i	1.1
Cn1cc(C(=O)N2CCCCC2)c2ccccc21	0	·	·	·	99	i	0.98
Cc1ccc(N2C(=O)NC(=O)/C(=C\c3cnc(-c4ccccc4)nc3)C2=O)cc1	-2	-1.2	-50	34	115	i	1.1
CC(=NCc1cccnc1)c1c(O)n(-c2ccc(C)cc2)c(=O)[nH]c1=O	2	-1.7	-69	113	114	i	1
CCCOC(=O)C1C2c3ccccc3C(c3ccccc32)C1C(=O)O (centres undefined)	-6	·	·	·	104	i	1.1
CC1(C)C2CC=C(CN3CCOCC3)C1C2 (centres undefined)	-1	-2.3	48	127	104	i	1.1
Cc1cc(C(=O)Nc2ccccc2)nn1C(C)(C)C	·	·	·	·	104	i	1
CCOC(=O)c1c(C)n(Cc2ccccc2)c2ccc(OCC(O)Cn3nc(C)nc3C)cc12 (centres undefined)	4	-0.9	·	·	102	·	·
O=c1cccc2n1CC1CC2CN(c2ncnc3c2cnn3-c2ccccc2)C1 (centres undefined)	-9	-1.1	19	104	79	i	0.97
CN(C)C(=O)Oc1ccc(OCc2n(C)c3ccccc3[n+]2C)cc1	-2	-1.3	-20	149	82	i	0.96
CCOC(=O)c1c(N)n(Cc2ccco2)c2nc3ccccc3nc12	-2	1.7	-59	106	96	?	·
COc1ccc(C2N3CC(C)(C)CN23)cc1 (centres undefined)	-1	-1.1	38	156	98	·	·
CC(C)(C)c1ccc(CN2C(=O)CN=C(c3ccccc3)c3ccccc32)cc1	-18	0.1	0	61	100	i	0.89
O=C(Cn1ncc2ccccc21)N1CCC2(CC1)OCCO2	5	-0.3	·	·	101	i	0.88
COc1ccc(CCNCc2ccncc2)cc1	7	-0.5	28	76	-178	i	1
CC12CC[C@H]3[C@@H](CCC4(O)C[C@H](O)CCC34/C=N/NC(=O)Cc3ccccc3)C1(O)CCC2C1=CC(=O)OC1 (some centres undefined)	·	·	·	·	101	i	0.71
C=CCn1c(O)c(/C(CC)=N/NC(=S)Nc2ccccc2)c(=O)[nH]c1=O	·	·	·	·	101	i	0.92
COc1cccc(NP(=O)(Oc2ccccc2)Oc2ccccc2)c1	8	-1.2	·	·	97	i	0.82
CN1C(=O)C(=Cc2ccc(-c3cccc(Cl)c3)o2)C(=O)N(C)C1=O	-7	-1.9	44	114	101	i	1.1
O=C(CCC(=O)N1CCC2(CC1)OCCO2)Nc1nnc(C2CCCCC2)s1	·	·	·	·	101	i	0.91
CCN1C(=O)/C(=C/c2ccc3c(c2)CCN3CCCCl)C(=O)NC1=S	-6	-0.2	4	110	94	i	1.1
CC(C)CNC(=O)c1c(N)n(Cc2ccc3c(c2)OCO3)c2nc3ccccc3nc12	0	40*	13	105	101	i	0.86
COc1ccc(CCNCc2ccc(F)cc2)cc1OC	-3	-0.7	-11	106	99	i	0.9
C=CCn1c(O)c(C(CC)=Nc2ccc(N(C)C)cc2)c(=O)[nH]c1=O	·	·	·	·	93	i	1.1
CC[N+](C)(CC)CCCCOc1ccc2c(c1)C(=O)c1cc(OCCCC[N+](C)(CC)CC)ccc1-2	·	·	·	·	91	i	0.95
Cc1nn(Cc2ccccc2)c(Cl)c1C(=O)Nc1ccc(OC(F)(F)F)cc1	-8	-1.2	-112	30	47	i	1
N=C1c2ccccc2CN1c1ccc(F)c([N+](=O)[O-])c1	·	·	·	·	103	i	1
Cc1nnc(SCc2nc3ccccc3c(=O)n2-c2ccccc2Cl)n1N	0	1.0	-286	102	99	i	0.97
O=S(=O)(c1ccc(Cl)cc1Cl)N1CCCC1c1cccnc1 (centres undefined)	·	·	·	·	102	i	0.95
O=C(Nc1ccc(C(F)(F)F)cc1)OC1CN2CCC1CC2 (centres undefined)	·	·	·	·	114	i	0.81
Oc1ccc(Cl)cc1CN1CCN(Cc2ccccc2)CC1	2	-3.5	25	111	70	i	1.1
CN1CCCC1C(O)(c1ccccc1)c1ccccc1 (centres undefined)	-10	-1.2	0	58	·	i	1
O=C(CN1CCN(Cc2cccc(Cl)c2)C1=O)N1CCC2(CC1)OCCO2	-1	-1.2	63	141	104	i	1.1
O=c1[nH]c(=S)n(-c2ccc(F)cc2)c(O)c1/C=N/N1CCOCC1	·	·	·	·	108	i	0.73
COC(=O)c1ccc(N2CCN(C)CC2)c([N+](=O)[O-])c1	-1	·	·	·	106	i	0.94

One compound at a time (already shown):
Shown for O=c1cccc2n1CC1CC2CN(c2ncnc3c2cnn3-c2ccccc2)C1 (centres undefined) : PKD1 inh: -9; GALR2 ag: -1.1; INS promoter inh: 19; INS promoter inh cell count: 104; RGS16-Gao HTS: 79; HSV augment: i; HSV augment primary fold: 0.97
Shown for Fc1ccc(C(OCCN2CCCC2)c2ccc(Br)cc2)cc1 (centres undefined) : PKD1 inh: -2; GALR2 ag: 0.3; INS promoter inh: 3; INS promoter inh cell count: 92; RGS16-Gao HTS: 102; HSV augment: i; HSV augment primary fold: 0.84

(cont.)
SMILES	PKD1 inh	GALR2 ag	INS promoter inh	INS promoter inh cell count	RGS16-Gao HTS	HSV augment	HSV augment primary fold
FC(F)(F)C1=NC(C(F)(F)F)=NP(N2CCOCC2)(N2CCOCC2)=N1	2	-0.6	·	·	i	i	0.91
O=C(O)C12C3CCCC1C32c1ccccc1 (centres undefined)	-4	-0.4	·	·	98	i	0.94
NC(=O)c1ccc(C(=O)Nc2ccc([As](=O)(O)O)cc2)cc1	·	·	·	·	102	i	0.93
CCOc1ccccc1N=C1SCCCN1C	2	-1.7	9	57	47	i	0.93
CCOc1ccc2nc(N3CCC(C(=O)N4CCC5(CC4)OCCO5)CC3)sc2c1	-3	-1.7	-31	58	98	i	0.81
Fc1ccc(CCNCc2cccc(Cl)c2)cc1	4	-1.9	·	·	102	i	0.93
O=C1CC(N2CCC(n3c(=O)[nH]c4ccccc43)CC2)C(=O)N1Cc1ccccc1 (centres undefined)	0	1.4	33	94	102	i	0.8
NCCCC(=O)OC1N=C(c2ccccc2Cl)c2cc(Br)ccc2NC1=O (centres undefined)	-5	·	·	·	101	i	0.88
CCCCc1nc2ccccc2c(=O)n1-c1ccc(O)cc1	-7	-2.3	34	85	100	i	0.85
O=c1[nH]c(=S)[nH]c(O)c1N=Nc1cccc(S(=O)(=O)N2CCOCC2)c1	·	·	·	·	97	i	0.86
COC(=O)CN1C(=O)C2(C(C(=O)OC)=C(N)Oc3ccccc32)C2=C1CC(C)(C)CC2=O (centres undefined)	1	0.4	7	85	99	i	0.89
Clc1ccccc1CN1CCN(c2ccccc2Cl)CC1	-2	3.5	12	98	100	i	0.95
CC(C)C12CN3CC(C(C)C)(CN(C1)C3c1cccnc1)C2=O (centres undefined)	-14	-0.7	-36	84	95	i	1
CCNC(=O)[C@H]1O[C@@H](n2cnc3c(N)ncnc32)[C@H](O)[C@@H]1O	·	·	·	·	102	i	0.96
